Ecoli growth: E. coli growth inhibition; Escherichia coli growth, OD600, 23 h; active compounds read low; OD600 absorbance (no concentration beside the values); hit rate 0.21% among 330,000;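 active = OD600 absorbance below the run mean of sample wells minus 3.6 SD, in any replicate, cut at about 0.56 in these data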;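 also: stock transfer was 300 nL into about 60 µL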
Active calls of the source: *; & = joins results of further samples. Not all compounds are listed; count on the stated rates, not on these rows.

SMILES	Ecoli growth
CC(C)(C)OC(=O)NCCCCC(NC(=O)c1nc[nH]c1C(=O)N1CCc2ccccc2C1)C(=O)OC(C)(C)C (stereo unspecified)	0.705
COC(=O)NN=Cc1c(C)c(C(=O)c2ccc(F)cc2)n2ccccc12	0.686
O=C(NN=C1CCCc2c1[nH]c1ccc(Cl)cc21)c1ccncc1	0.684
OCC(O)C=NNc1nc(Nc2ccccc2)nc(Nc2ccccc2)n1 (stereo unspecified)	0.653
CC1=CC(=NNc2ccccc2[N+](=O)[O-])CC(C)(C)C1	0.686
Cc1ccc(-n2nc(C)c(C=NNC(=O)c3cccnc3)c2Cl)cc1	0.665
CCOC(=O)C1C2COc3ccc(OC)cc3C2N2C(=O)c3ccc(Cl)cc3NC(=O)[C@@]12C (stereo partly specified)	0.707
COc1cccc(C=NNC(=O)c2oc3nc(-c4ccccc4)cc(-c4ccco4)c3c2N)c1	0.692
O=C(Cc1cccc2ccccc12)NN=Cc1ccc(O)c([N+](=O)[O-])c1	0.667
CCC(C)Sc1ccc(C2N[C@@](Cc3ccccc3)(C(=O)OC)C3C(=O)N(CC)C(=O)C23)cc1 (stereo partly specified)	0.705
COc1cc(C=NN2C(=O)c3ccccc3NC2(C)c2cccc([N+](=O)[O-])c2)cc(Br)c1O (stereo unspecified)	0.744
CCc1cccc2c(C=NNC(=O)c3cccc(S(=O)(=O)Nc4ccccc4Cl)c3)c[nH]c12	0.677
Cc1cc(C)n(CCC(=O)NN=Cc2ccccc2O)n1	0.701
COc1ccc(N2C(=O)C(=Cc3ccc([N+](=O)[O-])cc3)N=C2C)c(OC)c1	0.695
O=C(CCNc1n[nH]c(=O)[nH]c1=O)NN=Cc1ccc(C(F)(F)F)cc1	0.706
COc1ccc(CN(C(C)CO)S(=O)(=O)N(Cc2ccccc2)C(CO)C(C)C)cc1 (stereo unspecified)	0.715
COc1ccc(C=NNc2nc(=O)[nH]nc2C)cc1[N+](=O)[O-]	0.692
CN1CC2C3C(=O)N(C)C(=O)C3[C@](C)(C1=O)N2C(=O)c1ccc(C(C)(C)C)cc1 (stereo partly specified)	0.673
COc1ccc(C=NNc2ccccc2)cc1Cn1nc(C)c([N+](=O)[O-])c1C	0.78
Cn1cccc1CC(=O)NN=Cc1cc([N+](=O)[O-])ccc1Cl	0.69
CC1CCCC(C)N1N=Cc1ccc(Cl)cc1 (stereo unspecified)	0.719
COc1ccc(C(=O)NC(=Cc2ccccc2)C(=O)NC(CC(C)C)C(=O)O)cc1 (stereo unspecified)	0.692
CCOc1cc(C=NNC(=O)c2ccc(N(C)S(=O)(=O)c3ccccc3)cc2)ccc1OC	0.695
Nc1c(S(=O)(=O)c2cccs2)c2nc3ccccc3nc2n1N=Cc1cccc(O)c1	0.772
Cc1cc(C(=O)NN=Cc2cc(Br)c(Br)o2)n[nH]1	0.636
COc1ccc(-c2ccnc3nc(N=CN(C)C)nn23)cc1	0.684
Cc1nn(-c2ccccc2)c(Cl)c1C=NNC(=O)c1ccn[nH]1	0.707
COc1ccccc1C(=O)ON=C(c1ccccc1)c1ccncc1	0.649
C=C(C)CSc1nncn1N=Cc1ccc(OC)cc1	0.694
O=C(Cc1ccc(Br)c2ccccc12)NN=Cc1ccccn1	0.677

Quoted from the results shown for reference:
SMILES	Ecoli growth
OCC(O)C=NNc1nc(Nc2ccccc2)nc(Nc2ccccc2)n1 (stereo unspecified)	0.653
CC1=CC(=NNc2ccccc2[N+](=O)[O-])CC(C)(C)C1	0.686
Cc1ccc(-n2nc(C)c(C=NNC(=O)c3cccnc3)c2Cl)cc1	0.665
CCOC(=O)C1C2COc3ccc(OC)cc3C2N2C(=O)c3ccc(Cl)cc3NC(=O)[C@@]12C (stereo partly specified)	0.707
COc1cccc(C=NNC(=O)c2oc3nc(-c4ccccc4)cc(-c4ccco4)c3c2N)c1	0.692
O=C(Cc1cccc2ccccc12)NN=Cc1ccc(O)c([N+](=O)[O-])c1	0.667
CCC(C)Sc1ccc(C2N[C@@](Cc3ccccc3)(C(=O)OC)C3C(=O)N(CC)C(=O)C23)cc1 (stereo partly specified)	0.705
COc1cc(C=NN2C(=O)c3ccccc3NC2(C)c2cccc([N+](=O)[O-])c2)cc(Br)c1O (stereo unspecified)	0.744
CCc1cccc2c(C=NNC(=O)c3cccc(S(=O)(=O)Nc4ccccc4Cl)c3)c[nH]c12	0.677
Cc1cc(C)n(CCC(=O)NN=Cc2ccccc2O)n1	0.701
COc1ccc(N2C(=O)C(=Cc3ccc([N+](=O)[O-])cc3)N=C2C)c(OC)c1	0.695
O=C(CCNc1n[nH]c(=O)[nH]c1=O)NN=Cc1ccc(C(F)(F)F)cc1	0.706
COc1ccc(CN(C(C)CO)S(=O)(=O)N(Cc2ccccc2)C(CO)C(C)C)cc1 (stereo unspecified)	0.715
COc1ccc(C=NNc2nc(=O)[nH]nc2C)cc1[N+](=O)[O-]	0.692

Remaining list, next part.
SMILES	Ecoli growth
COc1ccc(C=NNc2ncc(Br)cn2)c(OC)c1	0.653
CC(NC(=O)c1nc[nH]c1C(=O)NCc1ccccc1)C(=O)OC(C)(C)C (stereo unspecified)	0.662
CC(=NNC(=O)CNC(=O)c1cccc(F)c1)c1ccc2ccccc2c1	0.653
Cc1ccc(C(=O)ON=CC2=C(Cl)c3ccccc3CC2)cc1	0.786
COc1c(Br)cc(Br)cc1C=NNC(=O)c1ccncc1	0.671
CCOc1ccc(OCc2ccc(C(=O)NN=C(C)c3ccccn3)cc2)cc1	0.659
C#CCOCCOCCOCCNc1nc(N2CCN(C(=O)C(Cc3ccc(O)cc3)n3cc(C(N)CC(C)C)nn3)CC2)nc(N2CCN(C(=O)C(CCCCN)n3cc(C(N)C(C)CC)nn3)CC2)n1 (stereo unspecified)	0.692
CC(=NNC(=O)c1csc(C)c1C)c1ccco1	0.682
O=c1c2c3c(sc2ncn1N=Cc1ccc(Br)o1)CCCC3	0.688
COc1ccccc1-c1n[nH]c2c1C(C)CCC2C(C)C (stereo unspecified)	0.689
COc1cc(C=NNC(=O)CC(=O)NCCc2ccccc2)ccc1O	0.66
COC(=O)c1scc(C)c1NN=C(C)c1ccc(F)cc1	0.697
Cc1c(C(=O)NN=Cc2cccnc2)sc(=S)n1C	0.674
O=C(CNC(=O)c1ccccc1)NN=Cc1cn[nH]c1-c1ccccc1	0.689
CCCC(=NNC(=O)Cc1csc(N2CCOCC2)n1)c1ccccc1	0.693
O=C(NN=Cc1ccccc1)c1n[nH]c2c1CCCC2	0.686
C=CCn1c2ccccc2c(=O)c2cc(C#CCC(C)O)ccc21 (stereo unspecified)	0.656
CC(C)(C)CN1C(=O)C(=O)NCC1Cc1cccc2ccccc12 (stereo unspecified)	0.654
Oc1ccccc1C=NNc1ccccc1	0.653
CN(C)S(=O)(=O)n1cnc(C2C3C(=O)OCC3C[C@]23N=CN(Cc2ccccc2)C3=O)c1 (stereo partly specified)	0.693
CC(C)(C)c1cc(C(=O)NN=Cc2cc3c(cc2Br)OCO3)n[nH]1	0.618
Cc1ccc(CN2CCN(N=Cc3cccnc3)CC2)c(C)c1	0.696
Cn1c(=O)n(C)c2cc(C=NNC(=O)c3ccc(Cl)cc3Cl)ccc21	0.729
CC(=NNC(=O)c1ccccc1)c1ccccc1Br	0.683
CC(=NNC(=O)c1ccc2c(c1)OCO2)c1cccnc1	0.722
O=C(NN=Cc1cccs1)c1n[nH]c2c1CCC2	0.668
O=C(C[n+]1ccc(C(=O)NN=Cc2ccc(Cl)cc2Cl)cc1)c1ccccc1	0.722
CC(C)(CNC(=O)CON=C1C=C2CCC3C(C(O)C[C@@]4(C)C3CC[C@]4(O)C(=O)CO)[C@@]2(C)CC1)C(O)C(=O)O (stereo partly specified)	0.69
O=[N+]([O-])c1cc(C=NN2CCN(Cc3ccccc3)CC2)ccc1Cl	0.641
CCCCOC(=O)C1C2C=C[C@]3(CN(c4ccccc4CC)C(=O)C13)O2 (stereo partly specified)	0.725

Pulled by structure from the list above (2):
SMILES	Ecoli growth
COc1cccc(C=NNC(=O)c2oc3nc(-c4ccccc4)cc(-c4ccco4)c3c2N)c1	0.692
COc1ccc(C=NNc2ccccc2)cc1Cn1nc(C)c([N+](=O)[O-])c1C	0.78

The list goes on.
SMILES	Ecoli growth
CC(=NNC(=O)CNC(=O)c1ccco1)c1ccc(Cl)cc1	0.68
CCOC(=O)C1=C(C)N=c2sc(=Cc3cccn3C)c(=O)n2C1c1cccc(OC)c1OC (stereo unspecified)	0.661
CC(=NNc1nncc2ccccc12)c1ccc(C(C)(C)C)cc1	0.672
Cc1ccc(N2C(=O)CSC2=NC(=S)Nc2ccccc2)cc1	0.712
COCCCN1C(=O)C(=O)C(=C(O)c2ccc(C)cc2)C1c1ccccc1 (stereo unspecified)	0.703
CC(=NN=C1SCC(=O)N1c1ccccc1)c1ccc(C)cc1	0.729
CC(Oc1ccccc1)c1nnn(Cc2ccccc2)c1-c1c(C(C)Oc2ccccc2)nnn1Cc1ccccc1 (stereo unspecified)	0.688
COc1ccc(NN=C(C#N)S(=O)(=O)c2nsc(C)c2C#N)cc1	0.705
Cc1occc1C(=O)NN=Cc1cnn(C)c1C	0.706
CC1=NOC(=O)C1=Cc1ccc(-c2ccc(Cl)c(C(=O)O)c2)o1	0.727
CC(=NNC(=O)c1nnn(-c2nonc2N)c1COc1ccccc1)c1ccc(O)cc1	0.74
CC1C=C[C@](Cc2ccccc2)(C(=O)NCC2CC2)N1C(=O)c1ccccc1 (stereo partly specified)	0.691
Cc1sc2nc(C)n(N=Cc3ccc(O)cc3)c(=O)c2c1C	0.701
CN(C)c1ccc(C=NNC(=O)CN2CCCCC2)cc1Br	0.682
COc1ccc(C(C)=NNc2nc3ccccc3n3cnnc23)cc1OC	0.701
CCC(=NO)c1cnnc(SC)n1	0.697
Cc1nc2ccccn2c1C(=O)NN=Cc1ccccc1Cl	0.677
CC(=NNC(=O)c1ccc(C)cc1C)c1ccc(-n2ccnc2)cc1	0.648
C#CCOCCOCCOCCNc1nc(N2CCN(C(=O)C(C)n3cc(CCCN=C(N)N)nn3)CC2)nc(N2CCN(C(=O)C(C)n3cc(CCCN=C(N)N)nn3)CC2)n1 (stereo unspecified)	0.671
CCCn1c(C)csc1=NC(=S)Nc1ccccc1	0.706
C=C1CCN(C(C(=O)OCc2cccc(C)c2)C(C)C)S(=O)(=O)c2ccccc21 (stereo unspecified)	0.691
O=C(NN=C(CC(=O)c1cccs1)C(F)(F)F)c1cccnc1	0.705
Cc1ccc(C=NNC(=O)c2cccnc2)s1	0.648
Cc1ccc(-n2c(C)cc(C=NNC(=O)c3ccncc3)c2C)cc1C	0.71
S=c1[nH]nc(-c2ccccc2)n1N=Cc1cccc(Br)c1	0.653
CCOC1OC(C(=O)O)=CC(c2csc3ccccc23)C1CCCO (stereo unspecified)	0.701&0.679
Cc1ccc(-n2c(SCC(=O)NN=Cc3ccccc3OCC(=O)O)nc3ccccc3c2=O)cc1	0.715
S=c1[nH]nc(COc2ccccc2)n1N=C/C=C/c1ccccc1	0.739
Cc1ccc(S(=O)(=O)N=C2CN(C)C(=O)N2C)cc1	0.694
C=CCN1C(=O)C(=C2Sc3ccccc3N2C)SC1=Nc1c(C)n[nH]c1C	0.68

Next results follow:
structure,Ecoli growth
CN1CCc2c(c3c(n2C)CCN(C)C3c2cccnc2)C1c1cccnc1 (stereo unspecified),0.722
C=CCNC(=S)N=c1ccccn1CC,0.698
CC(=NNC(=O)c1cccc(F)c1)c1ccc(Br)s1,0.622
COc1ccc(C=NNC(=O)COc2ccc3ccccc3c2)c(C(=O)O)c1OC,0.695
CCOc1cc(C=Nn2c(COc3ccccc3)n[nH]c2=S)ccc1O,0.69
Cc1ccc(C=Nn2c(-c3cccnc3)n[nH]c2=S)o1,0.695
CCOc1ccc(CC(=O)NN=C(C)c2cccnc2)cc1OCC,0.614
C#Cc1ccc(C2C=C(C(=O)N3CCN(Cc4ccc5c(c4)OCO5)CC3)OC(OCc3ccc(CO)cc3)C2)cc1 (stereo unspecified),0.736
Cn1c(O)c(C=NNC(=O)c2cc3ccccc3cc2O)c2ccccc21,0.619
C#CCOCCOCCOCCNc1nc(N2CCOCC2)nc(N2CCN(C(=O)C(CO)n3cc(C(N)C(C)C)nn3)CC2)n1 (stereo unspecified),0.721
COc1ccccc1/C=C/C(=O)NCC(=O)NN=Cc1ccccc1,0.678
O=C(CC=NOCc1c(Cl)cccc1Cl)c1ccc(Cl)cc1,0.642
CN1C(=O)C(O)(CC(=O)C=Cc2ccco2)c2cc(Br)ccc21 (stereo unspecified),0.682
COc1ccc2ccccc2c1C=NNC(=O)c1ccc([N+](=O)[O-])cc1,0.648
COc1ccc2c(c1)CCC1C2CC[C@]2(C)C(C(C)=O)CC12 (stereo partly specified),0.678
C=C(C)C(=O)Nc1cccc(C2=NOC3(C2)CC(C(N)=O)N(C(=O)c2ccc(Cl)cc2)C3)c1 (stereo unspecified),0.661
CC1(C)ON(C2CCCCC2)C2c3nc4ccccc4n3CC21 (stereo unspecified),0.672
COC(=O)C(Cc1ccccc1)C(C)OS(N)(=O)=O (stereo unspecified),0.697
CC1(C)CC(=O)C2=C(C1)OC(N=CN1CCOCC1)=C(C#N)C2c1ccccc1 (stereo unspecified),0.707
Cc1c(C=NNC(=O)CNc2ccccc2)c2ccccn2c1C(=O)c1ccccc1,0.691
CN(N=Cc1cc(Br)cc(Br)c1O)c1cccc(C(F)(F)F)n1,0.701
CCOC(=O)C(=NNc1cc(Cl)ccc1Cl)N1CCN(CC)CC1,0.67
O=C(CN1CCCc2ccccc21)NN=Cc1c(O)ccc2ccccc12,0.703
COc1cc(Br)cc(C=Nc2ncn[nH]2)c1O,0.639
Nc1sc(-c2ccccc2)cc1C(=O)NN=Cc1ccc(Cl)cc1,0.716
Cc1nc(CC(=O)NN=Cc2ccc(OCC(=O)O)cc2)cs1,0.713
COc1ccc(OC)c(C=NNC(=O)CCCC(=O)Nc2cccc(Br)c2)c1,0.686
COC(=O)c1ccc(COc2ccccc2C=C(C#N)C(=O)NC(C)C)cc1,0.679
CC(C)(C)c1nnc(NN=Cc2ccccc2O)n(N)c1=O,0.624
C#Cc1ccc(C2C=C(C(=O)OCC=C)OC(OCC)C2CCCO)cc1 (stereo unspecified),0.674&0.694
CC(=O)C(=NNc1ccccc1)Sc1nnc(C(O)c2ccccc2)n1-c1ccccc1 (stereo unspecified),0.651
Cc1ccc2c(c1)C1C(CO2)C(c2ccccc2)[C@]2(C)C(=O)N(CC3CCCO3)CC(=O)N12 (stereo partly specified),0.669
COc1ccc(C=NNc2ccc([N+](=O)[O-])cc2)cc1Cn1cc([N+](=O)[O-])cn1,0.791
CN(C)C=CC(=O)Oc1ccc(Cl)cc1Cl,0.672
